Arbovirus anti – arbovirus infection inhibition; arbovirus infection cell-based antiviral screen; inhibition, % at 10 µM; 0.37% of 200,000 active; AID 1251;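 active means inhibition from about 30%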;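 further: bluetongue infection of BSR cells; cell survival read as ATP light after 72 h; 0% = infected wells without compound and 100% = uninfected wells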
Mtb H37Rv – M. tuberculosis H37Rv growth inhibitors, H37Rv strain (AID 1626). M. tuberculosis H37Rv growth inhibition; higher % means a stronger effect. one-dose inhibition, % at 10 µM; IC50 in µM for titrated hits. 0.95% of 220,000 active;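 active means confirmed in a dose series; inconclusive means inhibition above 80% but not taken into the dose series; inactive means below 80% or under 30% at every dose of the series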;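 further: bacteria incubated seven days before Alamar blue readout; 0% = bacteria only wells and 100% = bacteria with antibiotic wells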
RecA intein inh – blocks M. tuberculosis RecA intein splicing; P9WHJ3; inhibition, %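 (about 9 µM by stock and volumes)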; cell-free RecA intein splicing, fluorescence; 0.75% of 290,000 active; in the data active means inhibition above about 30%; inconclusive means no clear call, values can overlap the other calls;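 further: 0% = vehicle wells and 100% = reference inhibitor control wells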
Target sequence (P9WHJ3 whole entry, looked up): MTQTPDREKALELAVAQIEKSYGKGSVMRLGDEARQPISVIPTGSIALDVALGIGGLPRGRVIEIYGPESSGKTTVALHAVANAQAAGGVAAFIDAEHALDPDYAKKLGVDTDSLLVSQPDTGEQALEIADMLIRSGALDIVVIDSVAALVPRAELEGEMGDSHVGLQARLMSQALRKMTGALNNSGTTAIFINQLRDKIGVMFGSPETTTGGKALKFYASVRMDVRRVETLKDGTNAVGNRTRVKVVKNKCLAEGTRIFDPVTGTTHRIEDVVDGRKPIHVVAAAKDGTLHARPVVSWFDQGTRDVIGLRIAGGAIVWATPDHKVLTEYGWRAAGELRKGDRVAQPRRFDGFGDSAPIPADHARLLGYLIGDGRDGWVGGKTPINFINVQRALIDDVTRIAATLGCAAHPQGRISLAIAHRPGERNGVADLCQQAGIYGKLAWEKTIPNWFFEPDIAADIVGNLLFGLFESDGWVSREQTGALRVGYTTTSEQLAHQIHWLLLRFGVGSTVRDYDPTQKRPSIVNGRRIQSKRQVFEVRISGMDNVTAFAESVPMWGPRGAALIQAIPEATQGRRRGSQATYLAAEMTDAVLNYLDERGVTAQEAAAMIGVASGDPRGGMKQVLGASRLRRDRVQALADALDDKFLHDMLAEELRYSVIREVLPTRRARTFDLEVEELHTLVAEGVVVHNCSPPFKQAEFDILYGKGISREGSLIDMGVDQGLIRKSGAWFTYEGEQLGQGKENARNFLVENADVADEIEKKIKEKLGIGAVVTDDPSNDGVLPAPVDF
YopH inh – YopH (Yersinia) phosphatase inhibition; fluorescence Ex485/Em525; inhibition, %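 (about 10 µM by stock and volumes)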; 0.16% of 140,000 active; AID 898;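 active means inhibition of 50% or more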;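 further: controls were vehicle for no effect and minimum signal wells for full effect; inactives centre near -20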
Mtb betalactam – beta-lactam sensitization of Mtb H37Rv. inhibition, % at 25 µM. M. tuberculosis H37Rv growth with meropenem, percent inhibition; hits of this screen are not shown here. AID 434955. 0.27% of 330,000 active;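 active means about 74% or more and at least 40 points above the plate without the antibiotic, then above 30% in a dose series; inconclusive means first-round hits that could not be retested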;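 further: growth measured after seven days incubation then overnight dye step; 0% = bacteria only wells and 100% = bacteria with antibiotic; twin plates without the antibiotic show which effects depend on it; some results filed as inactive read as strong as hits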
Arbovirus anti repeat – also measured in Arbovirus anti; calls as there; inhibition, %; measured here: 10K subset replicate screen; many hits read low in the repeat;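 first of two repeat runs on a subset; 0% = infected and 100% = uninfected wells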
An asterisk follows results filed as active; ? = inconclusive; . = not tested or not shown; & = joins results of further samples.

SMILES | Arbovirus anti | Mtb H37Rv | RecA intein inh | YopH inh | Mtb betalactam | others
Cc1ccc(S(=O)(=O)N2CCC(C(=O)Nc3ccccc3N3CCCC3)CC2)cc1C | . | . | 0.7 | . | 2
CCN(CC)CCCNc1oc(/C=C/c2ccccc2)nc1C#N | . | -4% | -31 | . | 1
CC(=O)Oc1ccc(-c2csc(Nc3cccc(C)n3)n2)cc1 | . | . | 0.5 | . | 37
CC(=O)N1CC2(C)CN(C(C)=O)CC(C)(C1)C2O (stereo unspecified) | -5 | 6% | 0.5 | -6 | -6
Oc1c(C(c2cccs2)N2CCN(c3cccc(Cl)c3)CC2)sc2ncnn12 (stereo unspecified) | -3 | -1% | 7.9 | -13 | 1 | Arbovirus anti repeat=-2
Cc1ccccc1C(=O)O/N=C(\N)c1ccncc1 | 2 | 0% | 2.0 | -32 | -2
CC(CC(=O)Nc1cc(C(F)(F)F)ccc1Cl)c1ccccc1 (stereo unspecified) | 1 | 10% | 3.3 | -17 | -7
CN(C)CCN(C(=O)/C=C/c1cccs1)c1nc2c(F)cc(F)cc2s1 | -5 | 7% | 0.7 | -44 | 2
CC1=NN(C(=O)c2csc(C)c2)C(O)(C(F)(F)F)C1 (stereo unspecified) | 19 | . | 4.4 | -7 | 63
CCCNC(=O)CSc1nc(COc2ccccc2)nc2ccccc12 | -5 | -6% | 7.9 | . | 8
O=C(Nn1c(-c2ccccc2)nc2ccccc2c1=O)c1ccco1 | -4 | 2% | -0.8 | -5 | -1
CCOc1ccc(NC(=O)Cn2nnc(C(=O)NCCc3ccc(OC)c(OC)c3)c2N)cc1 | -1 | -4% | 1.3 | -5 | 48

Random excerpt: five entries already listed
SMILES | Arbovirus anti | Mtb H37Rv | RecA intein inh | YopH inh | Mtb betalactam | others
CC(=O)Oc1ccc(-c2csc(Nc3cccc(C)n3)n2)cc1 | . | . | 0.5 | . | 37
Cc1ccccc1C(=O)O/N=C(\N)c1ccncc1 | 2 | 0% | 2.0 | -32 | -2
O=C(Nn1c(-c2ccccc2)nc2ccccc2c1=O)c1ccco1 | -4 | 2% | -0.8 | -5 | -1
CN(C)CCN(C(=O)/C=C/c1cccs1)c1nc2c(F)cc(F)cc2s1 | -5 | 7% | 0.7 | -44 | 2
CC(=O)N1CC2(C)CN(C(C)=O)CC(C)(C1)C2O (stereo unspecified) | -5 | 6% | 0.5 | -6 | -6

Remaining list, next part:
SMILES | Arbovirus anti | Mtb H37Rv | RecA intein inh | YopH inh | Mtb betalactam | others
C[N+](C)(C)CCN1C(=O)CSC1=O | . | 16% | -0.6 | . | -4
CCOC(=O)c1ccc(CC(=O)c2oc3cc(O)ccc3c2C)o1 | 4 | -7% | -4.3 | -37 | 0
Cc1cc([N+](=O)[O-])nn1CC(=O)N/N=C/c1ccc(O)cc1O | . | -7% | -5.8 | . | -5
CCc1nnc(NC(=O)C2CCCN2S(=O)(=O)c2ccc(F)cc2)s1 (stereo unspecified) | 6 | 3% | 1.0 | -40 | 9
O=C1CCCc2oc3c(c21)CCCC3 | 5 | -7% | -1.2 | . | -5
COC(=O)C1=C(C)N=C2SC(C)C(=O)N2C1c1cccc(F)c1 (stereo unspecified) | -4 | 3% | 6.8 | -27 | -4
O=C(Nc1cc(Cl)ccc1N1CCOCC1)c1cccnc1 | . | . | -1.8 | . | 1
O=C(CN(C1CCCCC1)S(=O)(=O)c1ccc(Cl)cc1)NCc1ccncc1 | 0 | -6% | 0.8 | -32 | 5 | Arbovirus anti repeat=1
COc1ccc(-c2csc(N(CCCN(C)C)C(=O)c3ccc(C)cc3)n2)cc1 | . | . | 2.0 | . | 5
O=[N+]([O-])c1ccc(N2CCCC2)nc1N1CCCC1 | . | 5% | 5.1 | . | 3
Cc1ccc(C(C)C)cc1S(=O)(=O)NCc1cccnc1 | 13 | 1% | 0.5 | -16 | -1
CCCOC(=O)NC1CCS(=O)(=O)C1 (stereo unspecified) | 9 | 3% | -1.4 | -6 | -2
CCCCCCNC(=O)CNC(=S)N(Cc1cccs1)C1CCCCC1 | . | . | 6.7 | . | -2
CCCCSP1(=S)NCCCO1 (stereo unspecified) | 8 | -6% | 0.7 | -36 | -8
CC(C)c1nc2oc3c(N(C)CCO)ncnc3c2c2c1CCC2 | . | -5% | 1.4 | . | -1
O=c1[nH]c(=O)n(CCC2=CCCCC2)c(O)c1C=Nc1cccc(F)c1 | 6 | -9% | 0.3 | -149 | 3
CCn1c2ccccc2c2nn(C)c(=N)nc21 | 10 | -14% | 0.5 | 5 | 75
CCN(CC)C(=O)CSC1=Nc2ccccc2C2=NC(Cc3c[nH]c4ccccc34)C(=O)N12 (stereo unspecified) | -7 | -11% | 2.4 | -8 | -3
CC1CCCCC1NC(=O)CN1C(=O)NC(Cc2ccccc2)(Cc2ccccc2)C1=O (stereo unspecified) | -16 | . | 1.9 | -4 | -6
COc1ccc(S(=O)(=O)Nc2ccccc2C(=O)N2CCOCC2)cc1C | . | . | -1.8 | . | 4
Nc1ccc(C(=O)c2cccs2)cc1 | -2 | 22µM* | -2.3 | -9 | 97
COc1ccc(Cn2c(-c3ccc(OC)cc3)nc3c(c(=O)c4ccccc4n3C)c2=O)cc1 | 8 | 5% | -3.9 | -20 | 12
Cc1ccc2nc(SC(C(=O)c3ccccc3)c3ccccc3)nc(C)c2c1 (stereo unspecified) | -6 | -4% | -1.0 | -5 | -1
O=C(NCCCn1ccnc1)c1ccc(F)cc1 | . | . | 0.9 | . | -12

As a short view, 3 of the compounds above:
SMILES | Arbovirus anti | Mtb H37Rv | RecA intein inh | YopH inh | Mtb betalactam | others
COc1ccc(Cn2c(-c3ccc(OC)cc3)nc3c(c(=O)c4ccccc4n3C)c2=O)cc1 | 8 | 5% | -3.9 | -20 | 12
Cc1ccc2nc(SC(C(=O)c3ccccc3)c3ccccc3)nc(C)c2c1 (stereo unspecified) | -6 | -4% | -1.0 | -5 | -1
O=C(NCCCn1ccnc1)c1ccc(F)cc1 | . | . | 0.9 | . | -12

New compounds follow.
SMILES | Arbovirus anti | Mtb H37Rv | RecA intein inh | YopH inh | Mtb betalactam | others
O=C1C(Cl)=C(N2CCCCC2)C(=O)C(Cl)=C1c1cnc(N2CCCCC2)s1 | 3 | 11% | 35* | 49 | .
CN1C(=O)CSc2ccc(NC(=O)N3CCOCC3)cc21 | 1 | -4% | 0.9 | -18 | 0
CCCCN1C(=O)C(O)=C(C(C)=O)C1c1ccccc1 (stereo unspecified) | 5 | -9% | 0.8 | -46 | 31
O=C(CSCc1ccc(Cl)cc1)Nc1cc([N+](=O)[O-])ccc1O | 13 | -4% | 7.7 | . | -11
CCOC(=O)N1CCC(NC(=O)CS(=O)(=O)Cc2nc(-c3ccc(OC)cc3)oc2C)CC1 | . | . | 2.9 | . | -9
CC1CCC(NC(=O)CCS(=O)(=O)c2ccc3c(c2)CCN3C(=O)C2CC2)CC1 (stereo unspecified) | . | . | 3.3 | . | ?
Cc1c(NC(=O)c2ccc3ncccc3c2)c(=O)n(-c2ccccc2)n1C | 0 | -10% | 4.1 | -91 | 4
CC(=O)c1cc2c(cc1NC(=O)CN1CCCCC1C)OCO2 (stereo unspecified) | -4 | 1% | -0.9 | -8 | 6
O=C(OCCN1C(=O)c2cccc3c(N4CCOCC4)ccc(c23)C1=O)c1ccc(Cl)cc1Cl | 9 | ? | -58 | -21 | 84
Cc1ccccc1-n1c(O)c(/C=N/c2nccs2)c(=O)[nH]c1=O | -5&9 | -7%&0% | -2.9&-1.7 | 5 | -5&2
Cc1cc(-c2n[nH]c(=S)n2-c2ccccc2)nn1C | 3 | 8% | 1.8 | -14 | -9
Cc1cc(C)cc(NC(=O)CSc2ncc(S(=O)(=O)c3ccccc3)c(=O)[nH]2)c1 | 1 | -2% | 2.1 | -52 | 0
Cc1ccc(Nc2ccc([N+](=O)[O-])nc2[N+](=O)[O-])cc1 | -4 | 4% | 7.2 | -29 | 6
COc1ccc(N2CCN(CC(O)COc3cc(C)cc(C)c3)CC2)cc1 (stereo unspecified) | . | . | -2.9 | . | 7
Cc1ccc(-c2cc(C(F)(F)F)n3ncc(C(=O)N4CCCCC4c4cccnc4)c3n2)cc1 (stereo unspecified) | -9 | 9% | -8.7 | . | -2
CC1CCCC(C)N1C(=O)CSc1nnc(-c2c[nH]c3ccccc23)o1 (stereo unspecified) | 4 | 2% | -3.1 | -46 | 0
COC(=O)c1c(NC(=O)CN2C(=O)NC3(CCC(C(C)(C)C)CC3)C2=O)sc2c1CCCCC2 (stereo unspecified) | 1 | 3% | -2.4 | -14 | 7
CCOc1cc(C=C2C(=O)c3ccccc3C2=O)ccc1OCC(=O)Nc1ccc(C)cc1 | 6 | -4% | -36 | 41 | 7
COc1ccc(-c2noc(COc3ccc(Cl)c(C)c3)n2)cc1 | 0 | 7% | 0.6 | -24 | 4 | Arbovirus anti repeat=3
Cc1ccnc2nc(C(=O)OCC(=O)c3c[nH]c4ccccc34)nn12 | . | -8% | . | . | 4
CSCC(=O)NS(=O)(=O)c1ccc(C)cc1 | 1 | -19% | -1.5 | -9 | 0
Cc1cccc(C2Nc3ccccc3C(=O)N2CCc2ccccc2)n1 (stereo unspecified) | 0 | -6% | 0.8 | -9 | -4 | Arbovirus anti repeat=-2
O=C(N=C1SC2CS(=O)(=O)CC2N1c1ccc(OC(F)(F)F)cc1)C1CC1 (stereo unspecified) | . | . | -2.7 | . | 0
O=C(CCNC(=O)c1ccc(Cl)cc1)Nc1ccccc1N1CCCC1 | . | . | -1.6 | . | 1

By substructure, those above with an aryl thioether with sulfur outside any ring (4)
SMILES | Arbovirus anti | Mtb H37Rv | RecA intein inh | YopH inh | Mtb betalactam | others
CCCNC(=O)CSc1nc(COc2ccccc2)nc2ccccc12 | -5 | -6% | 7.9 | . | 8
Cc1ccc2nc(SC(C(=O)c3ccccc3)c3ccccc3)nc(C)c2c1 (stereo unspecified) | -6 | -4% | -1.0 | -5 | -1
Cc1cc(C)cc(NC(=O)CSc2ncc(S(=O)(=O)c3ccccc3)c(=O)[nH]2)c1 | 1 | -2% | 2.1 | -52 | 0
CC1CCCC(C)N1C(=O)CSc1nnc(-c2c[nH]c3ccccc23)o1 (stereo unspecified) | 4 | 2% | -3.1 | -46 | 0

Next records:
SMILES | Arbovirus anti | Mtb H37Rv | RecA intein inh | YopH inh | Mtb betalactam | others
COc1ccc(OCC(=O)N2CCN(C(=O)COc3ccccc3)CC2)cc1 | 1 | 7% | 1.6 | -29 | -13
CC(C)NC(=O)c1ccc(CNC(=O)OCC(F)(F)F)cc1 | 6 | -1% | -1.7 | 10 | -1
CC1CCN(Cc2c(C(=O)N3CCc4ccccc4C3)nc3ccc(Cl)cn23)CC1 | . | . | 4.1 | . | 0
CCOc1ccc(N/C=C/C(=O)c2ccc3ccccc3c2)c([N+](=O)[O-])c1 | 23 | -7% | 0.3 | 4 | 3
O=c1nc2scc(-c3ccccc3)n2c2ccccc12 | -4 | -12% | -5.5 | -45 | 4 | Arbovirus anti repeat=-4
COc1cccc(CN(C)CC(=O)NC(=O)NCc2ccco2)c1 | 6 | -3% | . | 5 | -6
CC(=O)NCCn1c(SCC(=O)NCc2ccco2)nc2ccccc2c1=O | 4 | -11% | 67* | -3 | 10
CC1CCCN(S(=O)(=O)c2ccc(CN3C(=O)c4cccnc4C3=O)cc2)C1 (stereo unspecified) | . | . | 4.6 | . | 2
O=c1c2ccccc2nnn1CCO | -1 | 4% | -0.2 | . | 0
CCc1nc2c3cnn(-c4cc(Cl)ccc4C)c3ncn2n1 | 5 | 8% | . | -19 | 70
O=C(N/N=C/c1ccc(O)c(O)c1)c1cc(-c2ccccc2)nc2ccccc12 | . | . | -4.4 | . | 2
O=C(CSc1ccccc1)NC(=O)NCc1ccccc1 | . | 1% | -0.3 | . | -6
O=C1NC(c2ccccc2OC(F)F)Oc2ccccc21 (stereo unspecified) | 1 | -3% | 0.3 | . | 5
Cn1c(SCC(=O)Nc2nccs2)nnc1C1CC1 | . | . | 0.3 | . | 3
CCOc1ccc(NC(=O)c2cc3c(C)nc4ccccc4c3o2)cc1 | -8 | -2% | 0.2 | -35 | -4
COc1cc(/C=c2\s/c(=C(/C#N)C(=O)N3CCCC3)n(-c3ccccc3)c2=O)ccc1O | -10 | 0% | -4.8 | -32 | 7
COc1ccccc1NC(=S)Nc1ccc2cn[nH]c2c1 | 2 | -2% | 5.5 | . | 1
COC(=O)c1cc(NS(=O)(=O)c2ccc(F)cc2)ccc1N1CCOCC1 | . | 2% | -1.2 | . | 6
C=CCNC(=O)COc1coc(CN2CCN(C(=O)c3ccco3)CC2)cc1=O | . | . | -0.8 | . | 0
Cc1ccccc1C(=O)NNC(=O)c1ccc(F)cc1 | 6 | -8% | 1.1 | -22 | -6
Cc1ccc(CNC(=O)C2CCCCN2S(=O)(=O)c2ccccc2)cc1 (stereo unspecified) | . | . | 1.4 | . | 4
O=C(Cc1ccccc1)NCc1ccc(-n2cccc2)cc1 | -16 | 12% | -4.1 | . | -2

An excerpt; rates above refer to the full screens.
